# VACV mCherry inh: inhibitors of vaccinia virus infection (mCherry reporter signal) | Potency, µM (top dose mostly 36.5 µM), for the others: top-dose activity change, negative = inhibition, usual class: inhibitors | actives 0.63% (n = 310,000) | Vaccinia virus mCherry reporter infection, fluorescence; about a quarter of the inactives have no number; active = well fitted inhibition curve with a large enough effect; inconclusive = small, poorly fitted or top-dose-only effect; inactive = no such curve, though single readings can be large or run the other way; tested in A549 cells; also: nearly all actives have a fitted effect of over 35% in size; inactives centre near -10
# VACV Venus inh: inhibitors of vaccinia virus (Venus reporter); Vaccinia virus Venus reporter expression, fluorescence; Potency, µM (titrated, usually from 36.5 µM), for the others: at the top dose activity change, negative = inhibition, hits mostly inhibitors; actives 0.46% (n = 330,000); active means well fitted inhibition curve with a large enough effect; inconclusive means small, poorly fitted or top-dose-only effect; inactive means no such curve, though single readings can be large or run the other way; tested in A549 cells; also: nearly all actives have a fitted effect of over 30% in size; inactives centre near -10
# Starred values were filed as active, the others as inactive; i = inactive; ? = inconclusive; / = no result given; & = joins results of further samples; [ ] = remark or other dose. % is scaled to controls: 0 for no effect and ±100 for the full control effect; potency is read from the fitted curve at half-maximal effect.
# Preview:
# Second line of a record: VACV Venus inh	VACV mCherry inh
CCC(C)[C@H](NC(=O)Nc1ccc(S(N)(=O)=O)cc1)C(=O)OC (some centres not stated)
 : -13%	-9%
COc1cc(-n2c(C)nc3cc(C(=O)O)ccc32)cc(OC)c1OC
 : 2%	-17%

# The list itself, from the first entry:
# Second line of a record: VACV Venus inh	VACV mCherry inh
CCC(C)[C@H](NC(=O)Nc1ccc(S(N)(=O)=O)cc1)C(=O)OC (some centres not stated)
 : -13%	-9%
COc1cc(-n2c(C)nc3cc(C(=O)O)ccc32)cc(OC)c1OC
 : 2%	-17%
CN(C)c1cccc(C(=O)Nc2nnc(Cc3ccccc3)s2)c1
 : -4%	i
CC(NC(=O)COC(=O)COc1cccc2c1OC(C)(C)C2)c1ccccc1 (configuration not stated)
 : -3%	-12%
COc1ccc(OC)c(NC(=O)CSC2=NN3CCCC(=O)N=C3S2)c1
 : -3%	-13%
CCOC(=O)N1CCc2c(sc3c2c(=O)n(CCc2ccccc2)c(=O)n3Cc2cc(C)ccc2C)C1
 : -14%	-11%
O=C(Nc1ccc2oc(-c3ccccc3F)nc2c1)c1cncc(Br)c1
 : -10%	-10%
O=C(c1cc(=O)[nH]c2ccccc12)N1CC=C(c2ccccc2)CC1
 : -7%	i
CC(=O)c1ccc(NC(=O)C(C)OC(=O)/C=C/c2ccco2)cc1 (configuration not stated)
 : -25%	-24%
CC1CC(C)CN(CCOc2cccc3ccccc23)C1 (configuration not stated)
 : -22%	-12%

# Full records, looked up by structure:
# Listed for O=C(c1cc(=O)[nH]c2ccccc12)N1CC=C(c2ccccc2)CC1 → VACV Venus inh = -7%; VACV mCherry inh = i
# Listed for CCOC(=O)N1CCc2c(sc3c2c(=O)n(CCc2ccccc2)c(=O)n3Cc2cc(C)ccc2C)C1 → VACV Venus inh = -14%; VACV mCherry inh = -11%

# More compounds follow.
# Second line of a record: VACV Venus inh	VACV mCherry inh
Cc1cc(C)n(-c2nc3ccccc3nc2N2CCCCCC2)n1
 : -14%	-15%
Nc1nonc1C(=O)NCCNc1ncccc1[N+](=O)[O-]
 : -5%	-1%
O=C(c1cc2ccccc2o1)N1CCN(S(=O)(=O)/C=C/c2ccccc2)CC1
 : -16%	-6%
CC(C)N(C1=N/C(=C\c2ccco2)C(=O)N1c1ccccc1)C(C)C
 : 1%	/
COC1C(O)C(CO)OC1n1c(Br)nc2c(=O)[nH]c(N)nc21 (configuration not stated)
 : -9%	-12%
O=[N+]([O-])c1ccc(S(=O)(=O)N/N=C/c2ccc3c(c2)OCO3)cc1
 : -19%	i
O=C(Cn1nc(Cc2cccnc2)c2ccccc2c1=O)N1CCN(c2ccc(F)cc2)CC1
 : -8%	-10%
Cc1ccc(-c2noc(CCC(=O)NCc3ccc4c(c3)OCO4)n2)cc1
 : -9%	/
Cc1cccn2c(=O)c3cc(C(=O)NCC4CCCO4)c(=N)n(CCN4CCOCC4)c3nc12 (configuration not stated)
 : 0%	-8%
CCCS(=O)(=O)NC(=O)C1(C)CCCN(C(=O)c2cccc(C)c2C)C1 (configuration not stated)
 : 2%	6%

# Single values from above:
# VACV mCherry inh with CC1CC(C)CN(CCOc2cccc3ccccc23)C1 (configuration not stated) → -12%
# VACV mCherry inh with COc1ccc(OC)c(NC(=O)CSC2=NN3CCCC(=O)N=C3S2)c1 → -13%

# Additional compounds
# Second line of a record: VACV Venus inh	VACV mCherry inh
CCN1CCCC1CNC(=S)Nc1ccc(C(C)=O)cc1 (configuration not stated)
 : -5%	i
O=C(CN1CCCCC1)Nc1cccc2c1OCO2
 : -17%	/
COc1ccc(C(=O)c2ccc(CC#N)s2)cc1
 : -25%	/
Cc1ccc(S(=O)(=O)Nc2cc3c(cc2N2CCOCC2)n(C)c(=O)n3C)c(C)c1
 : -6%	-3%
COc1ccc(C2=NN(c3nc(-c4ccccc4)c(CC(=O)O)s3)C(c3ccco3)C2)cc1 (configuration not stated)
 : 26%	i
O=C(Nc1ccc(S(=O)(=O)NCc2ccccc2)cc1)c1ccccc1[N+](=O)[O-]
 : -8%	-24%
O=C(c1ccco1)N(Cc1cccc([N+](=O)[O-])c1)c1ccc(Br)cc1
 : -13%	-26%
Cc1ccccc1N1C(=O)c2ccccc2NC1c1ccncc1 (configuration not stated)
 : -13%	-6%[1.46 µM]
CC(C)c1ccc2c(c1)[C@H]1OCC[C@H]1[C@@H](c1cccs1)N2
 : ?	?
COCCNC(=O)C1CCCN(C(=O)c2ccc(C(F)(F)F)nc2C)CC1 (configuration not stated)
 : 3%	-2%
COc1cc(CCC(=O)OCC(=O)NC(=O)c2ccc(Cl)cc2)cc(OC)c1OC
 : 5%	-7%
Cc1ccc(S(=O)(=O)Nc2ccc(O)c(Sc3ncn[nH]3)c2)cc1
 : -7%	?
Cc1ccc(NS(=O)(=O)c2cccs2)nc1
 : -5%	i
COC(=O)C1=C(CCc2ccccc2)NC(=O)NC1c1ccc(Cl)cc1 (configuration not stated)
 : -29%	i
CCOC(=O)c1c(C)[nH]c(C)c1S(=O)(=O)N1CCC(C(=O)Nc2cc(C)ccn2)CC1
 : -7%	-15%
CC(C)(C)c1cc2nc(NCCc3ccc(S(N)(=O)=O)cc3)ccn2n1
 : -18%	7%
COc1cccc(/C=N/NC(=O)CSc2nnc(C)n2-c2ccccc2)c1OC
 : -20%	/
CCOC(=O)c1ccc(Oc2nc(NC)nc(OC)n2)cc1
 : ?	-11%
Cc1nc(Cc2nnc(SCc3nc(N)nc(Nc4ccccc4C)n3)o2)cs1
 : -24%	-26%
CC(=O)c1c(C(C)=O)c(C)n(NC(=O)c2ccccc2O)c1C
 : 4%	1%
COC(=O)C[C@H]1c2ccccc2S(=O)(=O)N1c1ccc(N(C)C)cc1
 : -10%	-21%
Cc1cc(N2O[C@H]3C=C[C@@H]2C3)no1
 : -12%	i
CCOC(=O)CN1CC23C=CC(O2)C(C(=O)NC2CCCCCC2)C3C1=O (configuration not stated)
 : -16%	i
CCOC(=O)CC1c2ccccc2-n2nncc2CN1Cc1ccc(OC)cc1 (configuration not stated)
 : -12%	-29%
CCN(CC)CCC(=O)NC(C)(C)Cc1ccc(O)cc1
 : -8%	-14%
Cc1nnc2n(-c3ccccc3)c(=O)c3c4c(sc3n12)CC(C)CC4 (configuration not stated)
 : -10%	-23%
COc1ccc(NC(=O)CN2CCN(c3ccc(F)cc3)CC2)cc1
 : -15%	i
CCc1ccc(CN2CCN(C(=O)c3ccco3)CC2)cc1
 : ?	i
Cc1ccc(C(c2nnnn2CCC(C)C)N2CCN(C)CC2)cc1 (configuration not stated)
 : -12%	-24%
CCOC(=O)c1cccc(NC(=O)c2ccc3c(Cl)c4c(nc3c2)CCC4)c1
 : -11%	-8%
Cc1cc(C)n2nc(SCC(=O)N(CC(C)C)c3c(N)n(CC(C)C)c(=O)[nH]c3=O)nc2n1
 : 0%	-1%
Cc1nc2c(C(=O)NCCC3=CCCCC3)c[nH]n2c(=O)c1Cl
 : -5%	-6%
Cc1ccccc1-c1nc(CS(=O)CC(=O)N2CCN(c3cc(Cl)ccc3C)CC2)c(C)o1 (configuration not stated)
 : ?	?
COc1ccc(CNC(=O)COC(=O)C2=COCCO2)cc1
 : 1%	-12%
O=C(COC(=O)/C=C/c1cccc(F)c1)Nc1ccc2[nH]c(=O)[nH]c2c1
 : -4%	i
CC(C)(c1cc(Br)c(O)c(Br)c1)c1cc(Br)c(O)c(Br)c1
 : -16%	-7%
CCSc1nnc(-c2c[nH]c3ccccc23)o1
 : -17%	-9%
CCOC(=O)c1c(C)oc2ncnc(Nc3ccc(F)cc3Cl)c12
 : -5%	-4%
COC(=O)c1c(C)oc2ccc(N(C(=O)c3ccncc3)S(=O)(=O)c3ccccc3)cc12
 : ?	/
CC(=O)c1cccc(-n2nnnc2SCC(=O)NNC(=O)C(C)C)c1
 : 0%	i
COc1ccc(NC(=O)CCc2c(C)nc3cc(-c4cccc(F)c4)nn3c2C)cc1Cl
 : -6%	-4%
Cc1c(Cl)cccc1NC(=O)C(C)N(c1ccccc1)S(C)(=O)=O (configuration not stated)
 : 8%	11%
CC(=O)Nc1cncc(-c2cccc(C(=O)N3CCOCC3)c2)n1
 : -1%	-24%
O=C(c1cc(Br)ccc1Cl)N1CCCC1
 : -8%	-7%
Cc1cc(Oc2ccc(Br)cc2)nc(SCC(=O)c2ccccc2)n1
 : -21%	-25%
Cc1cc(C(=O)NC2CCCc3c2cnn3-c2cc(F)cc(F)c2)nn1C (configuration not stated)
 : -3%	-5%
Cc1cccc(C)c1NC(=O)C(=O)NCC(c1cccnc1)N1CCc2ccccc21 (configuration not stated)
 : -18%	-13%
C=CCn1c(COc2ccc(CC)cc2)nnc1SCC(=O)NC1CCS(=O)(=O)C1 (configuration not stated)
 : -11%	/
c1ccc(CNc2nc3ccccc3n3cnnc23)nc1
 : -4%	i
Cc1ccc(S[C@@H](CCN2CC[C@H](C(C)(C)C)CCC2=O)c2ccccc2)cc1
 : -24%&-26%	-3%

# Going on with the list.
# Second line of a record: VACV Venus inh	VACV mCherry inh
O=C(Nc1cc(C(F)(F)F)ccc1Cl)c1cc2nc(-c3ccc4c(c3)OCO4)cc(C(F)(F)F)n2n1
 : -6%	-10%
O=C(NNC(=O)c1cccc2ccccc12)c1ccc(Br)cc1
 : -13%	-16%
Cc1ccc(-c2csc(N(CCO)CCCn3c(C(F)(F)F)nc4ccccc43)n2)cc1
 : ?	-30%
O=C1CCc2cc(S(=O)(=O)N3CCCC3C(=O)N3CCN(c4ccccc4F)CC3)ccc2N1 (configuration not stated)
 : -14%	-9%
CCOC(=O)c1c(/N=C/c2c(O)n(-c3ccc(F)cc3)c(=S)[nH]c2=O)sc2c1CCCC2
 : -4%	-10%
c1ccc(Cc2noc(CN3CCN(C4CCc5ccccc5C4)CC3)n2)cc1 (configuration not stated)
 : -8%	-7%
O=C(CCl)N1CCN(C(=O)C2COc3ccccc3O2)CC1 (configuration not stated)
 : ?	?
CCOC(=O)c1ccc(NC(=S)NCc2cccnc2)cc1
 : 4%	i
O=C(NCc1ccc(Cl)cc1)C(=O)N/N=C/c1ccc(Br)cc1
 : -12%	-8%
Cc1cccc(C)c1N1CCN(S(=O)(=O)N2CCCCC2)CC1
 : -15%	-18%
COc1ccc(C(=O)N/N=C(\C)CC(=O)Nc2ccc(Cl)cn2)cc1
 : -5%	?
OCc1cn(-c2ccccc2)nc1-c1ccc2c(c1)OCCO2
 : ?	?
Cc1ccc(-n2cnc3sc(C)c(C)c3c2=O)cc1
 : -5%	-10%
CCN(CC)S(=O)(=O)c1ccc(Cl)c(C(=O)NCc2ccccc2Cl)c1
 : -16%	-28%
CN(C)c1ccc(/C=C/c2ccnc3c2ccc2ccccc23)cc1
 : -19%	-2%
Cc1cccc2c1cnn2C(=O)Nc1ccccc1Br
 : -1%	i
O=C(CN1CCCC1)N1CCCC(c2ccc(F)cc2)c2ccc(F)cc21 (configuration not stated)
 : -12%	-17%
O=S(=O)(Nc1ccc(C(F)(F)F)cc1)c1cccs1
 : -3%	6%
COc1cccc(N(Cc2nnc3n2CCCCC3)C(=O)Nc2cccc(Cl)c2)c1
 : -1%	-7%
COc1ccc(S(=O)(=O)Nc2ccccc2C(N)=O)cc1OC
 : -17%	-9%

# Random excerpt: 5 records from the list.
# Second line of a record: VACV Venus inh	VACV mCherry inh
O=S(=O)(Nc1ccc(C(F)(F)F)cc1)c1cccs1
 : -3%	6%
CC(C)(c1cc(Br)c(O)c(Br)c1)c1cc(Br)c(O)c(Br)c1
 : -16%	-7%
c1ccc(Cc2noc(CN3CCN(C4CCc5ccccc5C4)CC3)n2)cc1 (configuration not stated)
 : -8%	-7%
COc1cc(-n2c(C)nc3cc(C(=O)O)ccc32)cc(OC)c1OC
 : 2%	-17%
CN(C)c1cccc(C(=O)Nc2nnc(Cc3ccccc3)s2)c1
 : -4%	i

# (further entries)
# Second line of a record: VACV Venus inh	VACV mCherry inh
Cc1ccc(OCCSc2nc3ccccc3n2CC(=O)N2CCOCC2)cc1C
 : -4%	-11%
N#Cc1ccccc1S(=O)(=O)N1CCN(CC(=O)Nc2ccnn2C2CCCC2)CC1
 : -20%	i
C/C(=N\NC(=O)C1COc2ccccc2O1)c1ccc(N2CCOCC2)cc1 (configuration not stated)
 : 2%	i
CCc1ccc(OCCCC(=O)Nc2cccc(C(=O)O)c2)cc1
 : -5%	-14%
CCc1nc(C)cn1S(=O)(=O)c1cc(C)c(OC)cc1C
 : -8%	-24%
CCC(=O)Nc1ccc(C(=O)N/N=C/c2c(C)[nH]c3ccccc23)cc1
 : -5%	-10%
Cc1cccc(-c2nc(SCCCOc3ccc(Cl)c(C)c3)n3[nH]c(=O)cc3n2)c1
 : -3%	-14%
COc1ccc(/C=C/C(=O)N/C(=C\c2ccco2)C(=O)NCCc2nc3ccccc3[nH]2)cc1
 : -6%	-27%
COc1ccc(C(=O)N2CCCC(CCC(=O)N3CCN(c4ccccn4)CC3)C2)cc1 (configuration not stated)
 : -11%	-15%
O=C(CN1C(=O)COc2ccc(S(=O)(=O)N3CCCC3)cc21)NC1CC1
 : -7%	-9%
C(=N\n1cnnc1)/c1cccc2ccccc12
 : -6%	-16%
C[C@@H](c1ccccc1)N1C[C@H](COCc2ccccc2)Oc2cc(N3CCC[C@H]3CO)ccc2S1(=O)=O
 : -12%	7%
CC(=O)Nc1nonc1-c1nnc(SCC(=O)Nc2cc(C)cc(C)c2)n1C
 : -14%	-7%
CS(=O)(=O)Nc1ccc(C(=O)Nc2ccccc2Sc2ccccc2)cc1
 : -6%	-21%
Cc1ccc(NC(=O)CC2COc3ccccc3O2)cc1 (configuration not stated)
 : -18%	-25%
CCCN(CCC)Cc1cc(=O)oc2cc(OC)ccc12
 : 7%	27%
Cc1ccc(OCC(=O)Nc2ccc([N+](=O)[O-])cn2)cc1C
 : -6%	-17%[1.46 µM]

# Screening data: PubChem BioAssay, National Center for Advancing Translational Sciences (NCATS)
